Bioassay records as filed in PubChem BioAssay.
RVFV N-RNA inh: inhibitors of Rift Valley Fever Virus nucleocapsid-RNA interaction; RVFV N-RNA binding, fluorescence polarization; stronger effect = lower value; % bound, % (no concentration beside the values); actives 0.1% (n = 20,000);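 active means between 0 and 58% in either replicate with normal brightness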;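 further: 100 nL library stock added to about 12 µL; 100% = protein and probe without compound and 0% = probe alone; numbers are from one replicate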
Target sequence (P21700 whole entry, looked up): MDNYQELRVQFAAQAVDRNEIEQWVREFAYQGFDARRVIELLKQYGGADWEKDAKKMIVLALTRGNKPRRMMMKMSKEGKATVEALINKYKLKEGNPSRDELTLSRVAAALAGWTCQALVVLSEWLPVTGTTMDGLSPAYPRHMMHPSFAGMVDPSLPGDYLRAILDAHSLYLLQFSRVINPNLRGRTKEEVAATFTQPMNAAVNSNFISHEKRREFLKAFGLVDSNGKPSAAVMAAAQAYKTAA
An asterisk follows results filed as active; & = joins results of further samples.

| Structure | RVFV N-RNA inh |
| --- | --- |
| O=C1CC(SCCc2nc3ccccc3[nH]2)C(=O)N1c1ccc(F)cc1 (stereo not given) | 86 |
| CC(NC(=O)CS(=O)(=O)c1ccccc1)c1ccccc1 (stereo not given) | 100 |
| NC(=O)C1CCN(C(c2ccccc2)c2sc3ncnn3c2O)CC1 (stereo not given) | 102 |
| CC(=O)Nc1ccc(C(=O)OC2CCCCC2)cc1 | 96 |
| CCOC(=O)c1sc2nccc(N(C)C)c2c1N=CN(C)C | 92 |
| CC(=O)N/N=C/c1ccc(-c2cccc(C(=O)O)c2)o1 | 97 |
| Cc1ccc(Cl)cc1NCN1C(=O)CNC1=S | 101 |
| Cc1ccc(-n2ncc3c(N(C)C)ncnc32)cc1 | 101 |
| CCOC1Cc2ccccc2N(C(N)=O)c2ccccc21 (stereo not given) | 108 |
| O=S(=O)(NCc1csc(-c2cccs2)n1)c1ccc2c(c1)OCCCO2 | 92 |
| CN1C(=O)c2ccc(C(=O)NC3CCCCC3)cc2C1=O | 100 |
| COC(=O)c1cccc(OC(N)=O)c1 | 100 |
| Cc1noc(C)c1C(=O)O/N=C(\N)Cn1ccc(C(F)(F)F)n1 | 97 |
| CC(C)(C)CC(C)(C)NC(=O)c1ccccc1 | 99 |
| COc1ccc(OC)c(N=C(N)N=C(N)N)c1 | 87 |
| COc1cccc(C(=O)Nc2cc(F)cc(F)c2)c1 | 100 |
| CCOC(=O)c1cnn(-c2ccccc2)c1NC(=O)Nc1ccccc1 | 96 |
| O=C(Cn1cnc2c(nnn2Cc2ccccc2)c1=O)N1CCCC1 | 103 |
| CC(C)C(=O)Nc1c(C(=O)Nc2ccc3c(c2)OCO3)oc2ccccc12 | 100 |
| O=C1NC(=O)N(Cc2ccccc2Cl)C(=O)/C1=C/N1CCCCC1 | 95 |
| Cc1ccccc1CN1CCN(CCOCCO)CC1 | 98 |
| COc1ccc(C(C)C)cc1S(=O)(=O)N1CCCC1 | 98 |
| CN1CC(=O)N(c2ccccc2)C1=S | 95 |
| O=C(CN(c1ccc(F)cc1)S(=O)(=O)c1ccc2c(c1)OCCO2)N1CCN(Cc2ccc3c(c2)OCO3)CC1 | 100 |
| O=c1nc(SCc2ccccc2)nc2ccccn12 | 95 |
| O=C(c1ccc(Br)o1)n1cnc2ccccc21 | 104 |
| CC(=O)Nc1cccc(-c2nnc(SCc3ccccc3)o2)c1 | 96 |
| CCNc1nc(NCC)nc(NNC(=S)Nc2ccc(OCC)cc2)n1 | 98 |
| CC(C)=CC(=O)Nc1sc2c(c1C#N)CCCC2 | 95 |
| O=C(NCCc1cn2c(n1)SCC2)c1ccc(-c2ccccc2)cc1 | 97 |
| CCC1CCCCN1C(=O)Nc1ccccc1 (stereo not given) | 87 |
| O=C(/C=C/c1ccco1)Nc1ccc2c(c1)C(=O)N(c1ccccc1)C2=O | 91 |
| Cc1cc(C(=O)O/N=C(\N)c2ccccc2)nn1C(C)(C)C | 97 |
| CC(=O)Nc1ccc(F)cc1NC=C(C#N)C#N | 108 |
| NC(=O)Nc1ccc(F)cc1F | 93 |
| CN1[C@@H](CC(=O)c2ccccc2)CCC[C@H]1C[C@H](O)c1ccccc1 | 92&95 |
| Oc1cccc(C=NCc2ccccc2)c1 | 97 |
| C(#CC1(N2CCOCC2)CCCCC1)c1ccccc1 | 92 |
| CCOc1ccc(CC(=O)NN2CCOCC2)cc1OCC | 93 |
| CCCCc1ncc(/C=C(\Cc2cccs2)C(=O)O)n1Cc1ccc(C(=O)O)cc1 | 99&97 |
| CSc1ccc(S(=O)(=O)NC2CC2)cc1 | 101 |
| CC(C(=O)NN)n1nnc(-c2cc(C(F)(F)F)cc(C(F)(F)F)c2)n1 (stereo not given) | 90 |
| COC(=O)c1cnn(-c2c(Cl)cccc2Cl)c1C=C(C#N)C#N | 92 |
| Fc1ccc(C(OCCCc2cnc[nH]2)c2ccc(F)cc2)cc1 | 98 |
| CCC(CO)NCCNC(CC)CO (stereo not given) | 99 |
| CC(CCc1ccc(O)cc1)NCCc1ccc(O)c(O)c1 (stereo not given) | 92&94 |
| O=S(=O)(Nc1ncccn1)c1ccc(NC(=S)NN2CCOCC2)cc1 | 91 |
| Cc1nc(C2CCOC(C)(C)C2)cs1 (stereo not given) | 93 |
| O=C(Nc1n[nH]c(=S)s1)c1ccccc1 | 93 |
| CCOC(=O)c1cc(CC)sc1NC(=O)C(C)C | 98 |

The closing 8 compounds of the part above open the next one:
| Structure | RVFV N-RNA inh |
| --- | --- |
| COC(=O)c1cnn(-c2c(Cl)cccc2Cl)c1C=C(C#N)C#N | 92 |
| Fc1ccc(C(OCCCc2cnc[nH]2)c2ccc(F)cc2)cc1 | 98 |
| CCC(CO)NCCNC(CC)CO (stereo not given) | 99 |
| CC(CCc1ccc(O)cc1)NCCc1ccc(O)c(O)c1 (stereo not given) | 92&94 |
| O=S(=O)(Nc1ncccn1)c1ccc(NC(=S)NN2CCOCC2)cc1 | 91 |
| Cc1nc(C2CCOC(C)(C)C2)cs1 (stereo not given) | 93 |
| O=C(Nc1n[nH]c(=S)s1)c1ccccc1 | 93 |
| CCOC(=O)c1cc(CC)sc1NC(=O)C(C)C | 98 |
| CC(=O)Oc1cn(OC(C)=O)c2ccc(Br)cc12 | 95 |
| Cc1cc(OCC(=O)NCc2ccco2)c(C)cc1Br | 99 |
| CCCCC(=O)NCc1ccc(F)cc1 | 96 |
| Cc1ccc(S(=O)(=O)CCC#N)cc1C | 95 |
| C=CCSc1nnc(-c2ccc(C(C)(C)C)cc2)n1Cc1ccco1 | 93 |
| CC(C)c1cccc(C(C)C)c1OCCNCCO | 95 |
| CCCC(=O)Nc1nc(C(=O)OCC)cs1 | 96 |
| Cc1cc(NC(=O)Nc2ccc3c(c2)OCCO3)c(C(F)(F)F)o1 | 95 |
| CN1C(=O)Cc2ccccc21 | 98 |
| CC1CC(C)CN(C(=O)CSc2nnc(-c3ccccc3)o2)C1 (stereo not given) | 108 |
| COc1cc(CO)c(Br)cc1O | 98 |
| CC1(C)NC(=O)N(CCOc2ccc(F)cc2)C1=O | 99 |
| CO[C@]12C[C@@H](COC(=O)c3cncc(Br)c3)CN(C)[C@@H]1Cc1cn(C)c3cccc2c13 | 92 |
| CCOC(=O)C1CCN(C(=O)c2cc3ccccc3oc2=O)CC1 | 88 |
| C[C@@H]1C[C@H]2[C@@H]3CCC4=CC(=O)C=C[C@]4(C)[C@@]3(F)[C@@H](O)C[C@]2(C)[C@H]1C(=O)CO | 99 |
| FC(F)(F)c1nc(NCc2cccnc2)c2ccccc2n1 | 98 |
| COc1cc(Cc2cnc(N)nc2N)cc(OC)c1OC | 93&97&86 |
| C=CCSc1nnc(NC(=O)CSc2nc(CCC)cc(=O)[nH]2)s1 | 99 |
| O=C(Oc1c(-c2ccccc2)oc2ccccc2c1=O)c1cccnc1 | 101 |
| O=C(CSc1nnc2n1CCCN2)c1cccs1 | 91 |
| CC(=O)OCC1OC(Oc2ccccc2)C(OC(C)=O)C(OC(C)=O)C1OC(C)=O (stereo not given) | 90 |
| Cc1ccc(NC(=O)/C(C#N)=C\c2ccc(Sc3nc4ccccc4[nH]3)o2)cc1C | 99 |
| CCCCCCCCCOc1ccc2[nH]cc(CCN)c2c1 | 93 |
| CNC(=S)Nc1ccc(OC)cc1C | 103 |
| S=C1NCN(Cc2ccc3c(c2)OCO3)CN1 | 94 |
| Cc1cccc(C(=O)NCc2n[nH]c(=S)n2-c2ccccc2)c1 | 107 |
| O=C(O)COCC(=O)Nc1cc(Cl)cc(Cl)c1 | 94 |
| CCn1c(C)cc2c(c1=O)C(c1cccc(OC)c1)C(C(=O)OC)=C(N)O2 (stereo not given) | 110 |
| C#CCOC(=O)c1ccc(CSc2ccc(Cl)cc2)o1 | 110 |
| CC(C)=CC(=O)Nc1ccccc1C(N)=O | 88 |
| CCOC(=O)c1[nH]c(C)c(/C(O)=C2\C(=O)C(=O)N(CCN3CCOCC3)C2c2ccco2)c1C (stereo not given) | 102 |
| O=C1CCCN1S(=O)(=O)c1ccccc1 | 85 |
| O=C(COc1ccccc1O)NO | 90 |
| O=C(O)c1ccccc1Nc1ccccc1 | 99 |
| NC(=O)COc1ccccc1O | 91 |
| Cc1noc(C)c1C(=O)O/N=C(\N)c1ccc(-c2csnn2)cc1 | 99 |
| Cc1ccc(NS(C)(=O)=O)c(C(=O)c2ccccc2)c1 | 99 |
| O=C1CCC(=O)N1OCc1ccc(F)cc1 | 100 |
| CCC1CCCCN1C(=O)c1cnn2c1NC(c1ccco1)CC2C(F)(F)F (stereo not given) | 93 |
| CCCn1c(=S)[nH]c2cc(C(=O)N3CCc4ccccc4C3)ccc2c1=O | 98 |
| COc1ccc(OC)c2c1sc(=NC(=O)C1CCCCC1)n2C | 97 |
| CCc1c(C#N)c(N)nc(SCC(=O)OCc2ccccc2)c1C#N | 95 |
| CC(=O)Nc1ccc(-c2nc3cc(C)ccc3o2)cc1 | 94 |
| CCOC(=O)N1CCN(S(=O)(=O)c2cccc(S(C)(=O)=O)c2)CC1 | 93 |
| O=C(O)C1CCCNC1 (stereo not given) | 93 |
| CCOC(=O)/C(C#N)=C/Nc1cnc(N(C)C)c(C(F)(F)F)c1 | 99 |
| NC(=O)c1ccc(NC(=O)COc2coc(CN3CCc4ccccc43)cc2=O)cc1 | 97 |
| O=C1C(N2CCCCC2)=C(n2nnc3ccccc32)C(=O)c2ccccc21 | 95 |
| NNC(=O)CNC(=O)c1cccnc1Oc1ccccc1 | 98 |
| O=C(c1ccccc1CCc1ccccc1)N1CCOCC1 | 98 |

More structures
| Structure | RVFV N-RNA inh |
| --- | --- |
| COc1cc(OC)c(C(=O)NCCCN2CCOCC2)cc1OC | 98 |
| COCC(=O)Nc1ccc(Cl)cc1 | 105 |
| O=C1CCCN2N=C(SCC(=O)Nc3nc4ccccc4s3)SC2=N1 | 99 |
| C=CCc1cccc(Cl)c1OCCSc1ncccn1 | 91 |
| Cc1ccc(N=c2scc(-c3cccs3)n2CCCN2CCOCC2)cc1 | 109 |
| CC1(C)N=C(c2cccnc2)N(O)C1(O)c1ccccc1 (stereo not given) | 93 |
| Cc1nn(CC(=O)NCCSCc2ccco2)c(C)c1Br | 97 |
| Cc1cc(=O)oc2cc(OCc3nnc(-c4ccccc4)o3)ccc12 | 91 |
| COC(=O)c1ccccc1NC(=O)c1cc2cccnc2n(C)c1=O | 91 |
| NNC(=O)/C(=C\c1ccccc1)CCO | 94 |
| CCC(Oc1ccc(Br)cc1)C(=O)Nc1nccc(C)n1 (stereo not given) | 89 |
| O=C(CCCN1C(=O)/C(=C\c2ccco2)SC1=S)NC1CCCCC1 | 97 |
| Cc1c2c(n3c(nc4ccccc43)c1C#N)N(C1CCCC1)CC2 | 101 |
| CCCS(=O)c1ccc2nc(NC(=O)OC)[nH]c2c1 (stereo not given) | 96 |
| CCS(=O)(=O)c1ccc(S(=O)(=O)CC)s1 | 97 |
| COc1ccc2oc(-c3ccc(NC(=S)NC(=O)COc4ccccc4)cc3)nc2c1 | 100 |
| CC(C)(C)NC(=O)c1ccc2c(c1)C(=O)N(C1CCCCC1)C2=O | 87 |
| O=C(CNc1ccc2c(c1)oc1ccccc12)c1ccc2c(c1)OCO2 | 100 |
| CCOC(=O)c1cnn(-c2ncnc3c2cnn3C)c1C(F)(F)F | 91 |
| COc1c(C(=O)NC(=S)NCc2ccco2)cc2ccccc2c1Br | 98 |
| NNC(=O)CNS(=O)(=O)c1ccccc1 | 104 |
| CCCCn1nc(NC(=O)C(C)C)c2cc3cc(OC)ccc3nc21 | 98 |
| Cc1ccccc1N1CCN(Cc2ccc(O)cc2)CC1 | 98 |
| CCOC(=O)C1=C(N)Oc2c(oc(CO)cc2=O)C12C(=O)N(CC(N)=O)c1ccccc12 (stereo not given) | 105 |
| COc1ccnc(CS(=O)c2nc3cc(OC(F)F)ccc3[nH]2)c1OC (stereo not given) | 97 |
| CO/N=C1\CCCc2c(C(=O)NN)sc(SC)c21 | 91 |
| COc1ccc(-n2nnc3c(SCC(=O)NC4CCCCC4)ncnc32)cc1 | 94 |
| COC(=O)c1ccccc1N(C)C(=O)c1cc(OC)c(OC)c(OC)c1 | 89 |
| O=C(c1ccc(N2CCCC2)c(NC(=S)NC2CCCC2)c1)N1CCCC1 | 101 |
| C/C(=N\N1C(=O)c2ccccc2NC1c1ccccc1)c1ccccc1O (stereo not given) | 91 |
| O=C(O)CC1(CC(=O)NCc2cccnc2)CCCCC1 | 106 |
| Cc1cccc(CN2C(=O)C(O)(CC(=O)c3ccco3)c3ccccc32)c1 (stereo not given) | 98 |
| N#CC(c1ccc(Cl)cc1)c1c(Cl)cc(-n2ncc(=O)[nH]c2=O)cc1Cl (stereo not given) | 97 |
| O=C(Nc1ccc(-c2nc3ccccc3c(=O)[nH]2)cc1)C1CCCCC1 | 94 |
| CS(=O)(=O)NCCSc1nnnn1-c1ccccc1 | 93 |
| CNS(=O)(=O)c1ccc(NC(=O)c2cc3ccccc3oc2=O)cc1 | 91 |
| COc1ccc(NC(=O)CCC2CCCCC2)c(OC)c1 | 93 |
| CN(C/C=C/c1ccc(N(C)C)cc1)CCc1ccccn1 | 94 |
| O=C(c1sc2ccccc2c1Cl)N1CCC2(CC1)OCCO2 | 92 |
| Cc1onc(-c2ccccc2Cl)c1-c1nc2ccccc2c(=O)o1 | 99 |
| CN1CCN(NC(=O)COc2cccc(C(F)(F)F)c2)CC1 | 91 |
| CC1CN(c2nc(-c3ccc(F)cc3)cs2)CC(C)O1 (stereo not given) | 103 |
| Cc1oc(C(C)(C)C)cc1C(=O)/C(C#N)=C/Nc1ccccc1 | 89 |
| O=P(O)(O)C(O)(Cc1cccnc1)P(=O)(O)O | 97 |
| C=CCSc1nc(C)cc(=O)[nH]1 | 91 |
| CCCc1nc2c(C)cc(-c3nc4ccccc4n3C)cc2n1Cc1ccc(-c2ccccc2C(=O)O)cc1 | 101&96 |
| CC(C)(C)NC(=O)N1CCc2ccccc2C1 | 101 |
| Cc1c(C(=O)NCCc2ccc(S(N)(=O)=O)cc2)sc2nc(-c3ccccc3)cn12 | 93 |
| C[C@H]1O[C@@H](n2cc(F)c(=O)[nH]c2=O)[C@H](O)[C@@H]1O | 99&97 |
| CCNS(=O)(=O)c1cc(S(C)(=O)=O)ccc1Cl | 104 |
| S=C(Nc1ccccc1)N1CCCC1 | 93 |

Some of the compounds tested, so the mix of outcomes need not match the whole.
